# Compound activity deposited in PubChem BioAssay by National Center for Advancing Translational Sciences (NCATS).
# miR-21 FLuc: raises the signal of a miR-21 reporter; HeLa miR-21 FLuc reporter, luciferase, 48 h; Potency, µM (doses to about 38.3 µM), without a hit: at the top dose reporter change, positive = more light; 340,000 tested, under 10 active; active = well fitted rising curve with a large enough effect; inconclusive = small, poorly fitted or top-dose-only effect; inactive = no such curve, though single readings can be large or run the other way;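 further: % of control where 0% means no effect; miR-21 action dims this reporter so a rising signal means less miR-21 action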
#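 HeLa cells stably expressing CMV-driven firefly luciferase with a downstream miR-21 binding sequence, endogenously expressing miR-21, were treated with titrations (up to about 40uM final) for 48 hours at 37 degree Celsius. Luciferase luminescence was read after lysis.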
# Rango complex inh: prevents formation of the Rango-importin beta complex | AID 540263 | Rango CFP/YFP FRET sensor + importin beta, 45 min | hit rate 0.031% among 340,000 | Potency, µM (doses to about 92.2 µM), for the others: at the highest dose inhibition of complex formation | Q14974; active = rising FRET ratio curve, often small or poorly fitted; inconclusive = mostly compound fluorescence or quenching in the first reads; inactive = flat curves in all reads;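 further: potency means the concentration at half of the fitted maximal effect; 0% = DMSO wells and 100% = buffer wells lacking importin beta; nearly all actives have a fitted effect of over 15% in size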
# Target sequence (Q14974 whole entry, looked up): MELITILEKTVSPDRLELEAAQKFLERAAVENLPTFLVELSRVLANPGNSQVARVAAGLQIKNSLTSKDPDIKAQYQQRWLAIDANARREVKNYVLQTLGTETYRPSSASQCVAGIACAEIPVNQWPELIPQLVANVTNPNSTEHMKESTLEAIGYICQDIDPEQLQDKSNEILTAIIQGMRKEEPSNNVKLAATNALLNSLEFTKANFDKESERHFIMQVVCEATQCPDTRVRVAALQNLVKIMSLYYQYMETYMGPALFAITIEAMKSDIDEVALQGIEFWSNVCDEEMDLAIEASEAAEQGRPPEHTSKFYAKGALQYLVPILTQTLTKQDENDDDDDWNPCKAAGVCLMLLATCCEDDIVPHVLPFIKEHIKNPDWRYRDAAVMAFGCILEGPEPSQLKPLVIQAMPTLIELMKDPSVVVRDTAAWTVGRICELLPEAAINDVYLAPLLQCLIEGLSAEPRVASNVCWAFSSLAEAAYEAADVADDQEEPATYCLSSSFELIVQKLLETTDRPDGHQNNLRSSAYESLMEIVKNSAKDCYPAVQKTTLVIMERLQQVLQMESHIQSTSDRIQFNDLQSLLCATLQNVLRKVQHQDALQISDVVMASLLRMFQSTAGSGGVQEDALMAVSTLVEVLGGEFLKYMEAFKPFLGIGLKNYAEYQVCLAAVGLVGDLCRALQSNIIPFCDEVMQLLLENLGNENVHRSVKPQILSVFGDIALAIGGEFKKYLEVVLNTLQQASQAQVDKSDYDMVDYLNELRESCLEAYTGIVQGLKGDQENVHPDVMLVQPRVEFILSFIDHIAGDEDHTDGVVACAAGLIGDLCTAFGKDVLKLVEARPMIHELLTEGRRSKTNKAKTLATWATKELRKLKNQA
#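 FRET biosensor Rango (snurportin 1 IBB between N-terminal EYFP and C-terminal Cerulean), 50 nM in PBS/1 mM DTT/0.02% Tween-20/0.1% BSA, preincubated 5 min RT with compound; 0.125 microM importin beta added, 45 min RT, CFP/YFP FRET ratio read.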
# Rango dissoc inh: prevents RanGTP from dissociating the Rango-importin beta complex; hit rate 0.071% among 340,000; O95149+P62826; Biochemical FRET Rango-importin beta, RanGTP-induced dissociation; Potency, µM (doses to about 46.1 µM), for the others: top-dose activity change, negative = inhibition; active means falling FRET ratio curve, often poorly fitted, with flat reads before Ran was added; inconclusive means other falling curves, or compound fluorescence or quenching; inactive means flat or rising ratio curve;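 further: potency means the concentration at half of the fitted maximal effect; % of control where 0% means no effect; nearly all actives have a fitted effect of over 45% in size; -100% = wells without RanGTP and RCC1; the record marks most hits as doubtful in a second field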
#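 Compounds preincubate 5 min with complex of recombinant Rango and importin beta in PBS with 1 mM DTT. Ran (0.6 uM) loaded with 2 mM GTP plus 0.2 uM RCC1 starts dissociation; FRET is recorded 45 min later.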
# GLA inh pH 4.5: blocks human alpha-galactosidase A at pH 4.5. activity change, negative = inhibition, % at 105 µM. P06280. 230,000 tested, under 10 active. purified enzyme, 4-MU-alpha-Gal fluorescence, pH 4.5; inconclusive = small, poorly fitted or top-dose-only inhibition, or a rising curve; inactive = flat fitted curve, though single readings scatter; no compound was filed as active;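 further: 0% = full activity with enzyme and -100% = basal without enzyme; dose as in the result columns while the protocol names 77 µM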
# Active calls of the source: *; ? = inconclusive; / = not tested or not shown; & = joins results of further samples; [ ] = dose if it differs, or a comment. The list is partial; rates above refer to the full screens.
SMILES,miR-21 FLuc,Rango complex inh,Rango dissoc inh,GLA inh pH 4.5
COc1ccc(CNC(=O)CNS(=O)(=O)c2cccs2)cc1,2%,2.4%,-2%,/
O=C(COC(=O)Cc1ccccc1[N+](=O)[O-])Nc1nnc(-c2ccccc2)o1,/,-0.2%,1%,/
O=C(Nc1nnc(C2=COCCO2)o1)c1ccc(S(=O)(=O)N2CCOCC2)cc1,-1%,-4.7%,-6%,3
O=C(Nc1ccc(F)cc1)C(c1ccccc1)N1CCN(C(=O)c2ccco2)CC1 (stereo not given),-6%,-0.1%,10%,-4
Oc1ccc(/C=N/NC(=S)NC2CC3CCC2C3)cc1 (stereo not given),-26%,-0.3%,8%,-3
Cc1ccc(C(=O)Nc2ccc(N3CCCC3)cc2)c(C)c1,-18%,?,-17%,5
CCCCn1nc(C(=O)N2CCc3ccccc32)c2ccccc2c1=O,1%,-0.5%,1%,-8
N#Cc1c(N)nc(N2CCCC2)c(C#N)c1-c1ccc(Cl)cc1,2%,?,4%,16
Cc1ccc(NC(=O)COC(=O)/C=C/c2cccc(Cl)c2)cc1S(=O)(=O)N1CCOCC1,0%,0.4%,-13%,-18
O=S(=O)(CCc1nnc(-c2ccc(Br)cc2)o1)c1ccc(Cl)cc1,-1%,3.7%,2%,-4
Oc1ccc(N2CCN(Cc3nc4ccccc4[nH]3)CC2)cc1,-10%,4.3%,8%,/
Clc1ccccc1Cc1noc(CN2CCN(Cc3ccccn3)CC2)n1,-5%,?,8%,4
COCCCNc1nnc(Cc2ccccc2)c2ccccc12,-2%,-2.2%,7%,10
CCOC(=O)c1cn2nc(Oc3ccc(NC(C)=O)cc3)ccc2n1,-32%,-1.0%,-11%,3
Cc1cc(-c2c(C)[nH]n(-c3ccc(Cl)cc3)c2=O)n(-c2ccc(Cl)cc2)n1,0%,3.4%,-8%,-21
CCOc1ccccc1C(=O)NCc1ccco1,-10%,-3.1%,-11%,-11
CCOc1cc2[nH]c(=O)n(Cc3ccc(C(=O)NCCCN4CCCC4=O)cc3)c(=O)c2cc1OCC,7%,-1.0%,8%,-2[21.1 µM]
N#C/C(=C\c1ccccn1)c1ccccn1,12%,-3.6%,3%,/
COc1ccc(C(=O)NC(=S)Nc2ccc(Cl)c(C(=O)O)c2)cc1,3%,0.2%,0%,-4
COc1ccc(C(=O)N2CCN(c3ccccn3)CC2)cc1[N+](=O)[O-],-4%,-0.9%,22%,7
O=C(Nc1ccc2c(c1)OCCO2)c1cc(F)c(F)cc1Cl,-43%,?,12%,/
O=C(N/N=C/c1cccc(OCc2ccccc2)c1)c1cccs1,-18%,-0.4%,7%,?
CC1(C)Cc2nc3sc4c(SCC(=O)O)ncnc4c3cc2CO1,?,-0.6%,5%,-16
CCOC(=O)Cc1csc(SCC(=O)NC2CCCCC2)n1,-2%,1.7%,13%,5
Cc1c(C(=O)NNC(=O)Nc2ccc([N+](=O)[O-])cc2)oc2ccccc12,9%,0.9%,8%,/
COc1ccc(N(CC(=O)Nc2ccc(C)c(C)c2)C2=NC3CS(=O)(=O)CC3S2)cc1 (stereo not given),0%,-1.7%,-14%,/
CCN(CC)S(=O)(=O)c1ccc2c(c1)N(CC(=O)NCCN1CCOCC1)C(=O)CO2,-1%,-0.7%,1%,/
CC1(OC(=O)c2cccs2)C(=O)C=C2C=C(C3CC3)OC=C2C1=O (stereo not given),/,?,-27%,-12&-5
COC(=O)c1c(NC(=O)c2ccccc2)sc(Cc2ccccc2)c1C,-7%,-0.1%,15%,-4
Cc1ccc(C)c(NC(=O)CSc2nnc(C)c(=O)n2N)c1,1%,0.2%,1%,-11
COc1cc(NC(C)=O)ccc1-c1cc2ccccc2oc1=O,-3%,-3.5%,-14%,-4
CCOC(=O)Cc1csc(NC(=O)CCCN2C(=O)c3ccccc3C2=O)n1,-1%,1.0%,-10%,-4
COc1ccccc1N1CCN(C(=O)COc2ccc(S(=O)(=O)NC(C)(C)C)cc2)CC1,8%,/,/,2
CN1CCN(c2ccc(C(=O)NC3CCCCC3)cc2[N+](=O)[O-])CC1,-18%,1.5%,29%,-21
CC(=O)c1cccc(NC(=O)Cn2cnc(S(=O)(=O)N3CCOCC3)c2)c1,0%,1.0%,2%,/
O=C(Nc1cc([N+](=O)[O-])ccc1O)c1cccc(NC(=O)c2ccco2)c1,-13%,-9.7%,0%,/

# An excerpt from above in order of the GLA inh pH 4.5 value, largest number first:
molecule | GLA inh pH 4.5
COc1ccccc1N1CCN(C(=O)COc2ccc(S(=O)(=O)NC(C)(C)C)cc2)CC1 | 2
COc1cc(NC(C)=O)ccc1-c1cc2ccccc2oc1=O | -4
Cc1ccc(C)c(NC(=O)CSc2nnc(C)c(=O)n2N)c1 | -11
CN1CCN(c2ccc(C(=O)NC3CCCCC3)cc2[N+](=O)[O-])CC1 | -21

# Next section
SMILES,miR-21 FLuc,Rango complex inh,Rango dissoc inh,GLA inh pH 4.5
CC(=O)C1C(c2ccc(O)cc2)NC(=O)NC1(O)C(F)(F)F (stereo not given),-4%,0.3%,20%,6
O=C(C[C@H]1C/C=C\C[C@H](Cc2ccc(F)cc2)C(=O)O[C@@H](c2ccccc2)CNC1=O)NCCO,/,-0.3%,-8%,/
N#Cc1c2ncn(CC(=O)c3ccc(Br)cc3)c(=O)c2c2n1CCC2,-1%,-2.0%,0%,2
COc1ccc(C(=O)N2CCN(Cc3ccc(OC)c(OC)c3)CC2)cc1,6%,-2.0%,25%,/
CCOC(=O)c1cnc2c(OC)cccc2c1N1CCN(c2ccc(OC)cc2)CC1,25%,-0.3%,1%,-13
Cc1nc2ccc(NC(=S)NCc3ccccc3)cc2nc1C,-51%,0.2%,3%,0
COc1ccc(CNC(=O)COC(=O)CNC(=O)c2sc3ccccc3c2Cl)cc1OC,/,0.0%,12%,/
CC(=O)NC(Cc1ccc(C(C)C)cc1)C(=O)NC1CCN(C(=O)c2cccc(C)c2)CC1 (stereo not given),2%,?,-12%,1
COc1cc(C(N)=O)ccc1OCc1ccccc1,-38%,-0.6%,-8%,4
CC(NC(=O)c1cc(-c2ccccc2)nc2ccccc12)C1CCCO1 (stereo not given),-3%,/,/,4
Cc1ncc(S(=O)(=O)c2ccccc2)c(-c2ccccc2Cl)n1,0%,-0.8%,1%,-5
CC(C)Cc1c2c([nH]c(=S)c1C#N)CCCC2,-22%,-0.7%,-7%,-2
Cc1cc(NC(=O)CN(C)S(=O)(=O)c2cccc(Cl)c2)no1,-3%,-2.8%,34%,-2
CN(C)CCC1CCN(c2cc(C#N)c(C#N)cc2[N+](=O)[O-])CC1,3%,0.4%,0%,-7
C[C@@H]1[C@H]2CCCC[C@H]2CN(C(=O)OC(C)(C)C)[C@@H]1c1cn(Cc2ccccc2)c2ccc(F)cc12,/,0.7%,-3%,/
N#CC(C#N)=C1NC2(CCCC2)Cc2ccccc21,-9%,-0.7%,8%,-6
CN1C(=O)[C@@H]2[C@H](C1=O)[C@@H]1C(=O)Nc3ccccc3C(=O)N1[C@@H]2c1ccc(F)cc1,0%,-0.1%,1%,/
CCCn1c(SCC(=O)NC2CCCc3ccccc32)n[nH]c1=O (stereo not given),-1%,2.7%,9%,10
O=C(O)c1ccc2c(=O)[nH]c(CN3CCOCC3)nc2c1,-2%,8.5%,-9%,-1
CCOc1ccc(CCNC(=O)COC(=O)CNS(=O)(=O)c2ccc(C)cc2)cc1OCC,/,3.7%,-24%,/
COc1ccc(N2CCN(CC(O)COC(c3ccccc3)c3ccccc3)CC2)cc1 (stereo not given),-3%,0.4%,-8%,/
O=C(NCc1nc2ncc(Br)cc2[nH]1)c1ccccc1,-16%,?,1%,-3
COc1ccc(Cl)cc1S(=O)(=O)NC(C)C(=O)NCCCn1ccnc1 (stereo not given),/,1.2%,8%,/
O=C(Nc1ccccc1N1CCOCC1)c1ccc([N+](=O)[O-])s1,/,0.3%,0%,/

# Single records (already shown). Values in the order: miR-21 FLuc | Rango complex inh | Rango dissoc inh | GLA inh pH 4.5
# `O=C(NCc1nc2ncc(Br)cc2[nH]1)c1ccccc1` is listed with -16% | ? | 1% | -3
# `O=C(O)c1ccc2c(=O)[nH]c(CN3CCOCC3)nc2c1` is listed with -2% | 8.5% | -9% | -1
# `COc1ccc(Cl)cc1S(=O)(=O)NC(C)C(=O)NCCCn1ccnc1` (stereo not given) is listed with / | 1.2% | 8% | /
# `C[C@@H]1[C@H]2CCCC[C@H]2CN(C(=O)OC(C)(C)C)[C@@H]1c1cn(Cc2ccccc2)c2ccc(F)cc12` is listed with / | 0.7% | -3% | /
# `CN(C)CCC1CCN(c2cc(C#N)c(C#N)cc2[N+](=O)[O-])CC1` is listed with 3% | 0.4% | 0% | -7

# Ordered by molecular weight (ascending): some entries from above.
SMILES,miR-21 FLuc,Rango complex inh,Rango dissoc inh,GLA inh pH 4.5
CN1C(=O)[C@@H]2[C@H](C1=O)[C@@H]1C(=O)Nc3ccccc3C(=O)N1[C@@H]2c1ccc(F)cc1,0%,-0.1%,1%,/
COc1ccc(Cl)cc1S(=O)(=O)NC(C)C(=O)NCCCn1ccnc1 (stereo not given),/,1.2%,8%,/
C[C@@H]1[C@H]2CCCC[C@H]2CN(C(=O)OC(C)(C)C)[C@@H]1c1cn(Cc2ccccc2)c2ccc(F)cc12,/,0.7%,-3%,/

# (list continues)
SMILES,miR-21 FLuc,Rango complex inh,Rango dissoc inh,GLA inh pH 4.5
O=C(COC(=O)/C=C/c1cccs1)Nc1ccccc1Cl,1%,-5.2%,11%,-5
Fc1ccc(CNc2nc(-c3ccccc3)nc3ccccc23)cc1,2%,-4.1%,0%,-1
CCOc1ccc(C2/C(=C(\O)c3ccc4c(c3)OCCO4)C(=O)C(=O)N2CCCN2CCOCC2)cc1 (stereo not given),-1%,1.8%,1%,/
CCN(CC)C(=O)[C@H]1CC(CC(=O)NCCCOC)C(=O)N2CCc3c([nH]c4ccccc34)[C@]12C (stereo not given in full),/,0.9%,0%,/
COc1ccc2c(c1)O[C@H](c1ccc3c(c1)OCO3)[C@@H](O)C2=O,-63%,-0.9%,5%,-3&-6
Cn1c(=O)n(C)c2cc(S(=O)(=O)NCc3ccccc3)ccc21,2%,5.3%,1%,4
COc1ccccc1/C=C/C(=O)N1CCC(c2ccccc2)C1 (stereo not given),-64%,0.1%,22%,9
CC1(C)C(=O)Nc2ccccc2N1C(=O)CSc1nnc2ccccn12,0%,0.3%,13%,-4
CCNCc1cc(Cl)c(OCc2ccccc2)c(OCC)c1,-2%,1.3%,-7%,6
Cc1nnc(SCC(=O)N2CCOCC2)s1,-2%,?,4%,-7
C=CCn1c(SCC(=O)N2CCN(CCO)CC2)nc2sc3c(c2c1=O)CCC3,0%,-3.0%,4%,/
CCC(C)c1ccc2oc(-c3ccc(NC(=O)Cn4cnc5c(=O)n(C)c(=O)n(C)c54)cc3)nc2c1 (stereo not given),-58%,0.1%,6%,-3
CC(=O)CC(C)(C)S(=O)(=O)c1ccc(Oc2ccc(S(=O)(=O)C(C)(C)CC(C)=O)cc2)cc1,-9%,3.1%,2%,0
Cc1c(C)n(CCC(=O)O)c2ccccc12,-2%,-1.2%,-1%,3
